EPAC2 antag = Validation qHTS for antagonist of cAMP-regulated guanine nucleotide exchange factor 4 (EPAC2). 16,000 compounds, 1.7% hits. Potency, µM (doses to about 112 µM), for the others: top-dose activity, negative = inhibition, hits mostly inhibitors. EPAC2 Rap1B BODIPY-GDP exchange, fluorescence; active = well fitted inhibition curve with a large enough effect; inconclusive = small, poorly fitted or top-dose-only effect; inactive = no such curve, though single readings can be large or run the other way;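 also: 100% = activation by cAMP agonist control; nearly all actives have a fitted effect of over 40% in size; the record reuses the description of the EPAC1 agonist screen; inactives centre near -10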
Target sequence (Q8WZA2 whole entry, looked up): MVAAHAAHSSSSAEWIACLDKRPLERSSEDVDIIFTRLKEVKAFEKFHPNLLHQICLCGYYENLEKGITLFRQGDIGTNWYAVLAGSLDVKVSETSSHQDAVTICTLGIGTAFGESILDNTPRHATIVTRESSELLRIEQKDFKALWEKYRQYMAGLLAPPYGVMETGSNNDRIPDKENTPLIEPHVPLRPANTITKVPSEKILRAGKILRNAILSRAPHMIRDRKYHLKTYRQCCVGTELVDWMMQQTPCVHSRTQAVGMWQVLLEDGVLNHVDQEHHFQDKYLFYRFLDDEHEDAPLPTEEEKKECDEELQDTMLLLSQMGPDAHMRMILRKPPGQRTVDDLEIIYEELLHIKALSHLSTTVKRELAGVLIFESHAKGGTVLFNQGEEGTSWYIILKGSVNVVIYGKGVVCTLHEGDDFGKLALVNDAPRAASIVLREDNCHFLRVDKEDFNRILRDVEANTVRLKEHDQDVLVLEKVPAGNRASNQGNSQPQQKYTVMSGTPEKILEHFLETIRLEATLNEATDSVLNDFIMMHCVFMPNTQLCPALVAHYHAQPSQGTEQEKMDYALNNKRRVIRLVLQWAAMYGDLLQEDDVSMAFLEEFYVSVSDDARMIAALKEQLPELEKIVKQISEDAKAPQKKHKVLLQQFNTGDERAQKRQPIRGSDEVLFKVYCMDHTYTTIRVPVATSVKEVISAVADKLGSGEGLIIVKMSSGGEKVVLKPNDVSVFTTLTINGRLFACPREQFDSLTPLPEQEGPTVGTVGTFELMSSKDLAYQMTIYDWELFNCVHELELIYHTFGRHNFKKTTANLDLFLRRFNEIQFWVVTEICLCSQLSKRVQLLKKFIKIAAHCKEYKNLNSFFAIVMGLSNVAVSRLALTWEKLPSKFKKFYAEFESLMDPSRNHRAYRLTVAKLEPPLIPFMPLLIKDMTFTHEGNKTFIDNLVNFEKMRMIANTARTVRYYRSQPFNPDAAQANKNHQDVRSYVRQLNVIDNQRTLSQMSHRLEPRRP
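Normalized against a 6.5 mM cAMP agonist control, compounds were tested on 100 nM EPAC2 exchanging Rap1B-bound BODIPY-GDP (250 nM) for 50 uM GDP. Fluorescence drop (ex 480, em 540 nm) was tracked at room temperature over 30 min at 5-min intervals.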
* hit, by the source's call; ? = inconclusive; & = joins results of further samples; [ ] = remark or other dose. Potency is read from the fitted curve at half-maximal effect.

SMILES	EPAC2 antag
Cc1ccc2nc(N3CCCCCC3)c(CN(CC3CCCO3)C(=O)c3cncs3)cc2c1 (stereo not given)	-33%
O=C(c1cccc(F)c1)N1CCC[C@@]2(CCN(c3ccccc3)C2)C1	-29%
COc1ccc2c(c1)OC/C(=C/c1ccc(O)c(O)c1)C2=O	-9%
CCOC(=O)C[C@H]1c2ccccc2S(=O)(=O)N1C1CC1	-20%
COC(=O)[C@@H]1CCCN1C(=O)c1c(OC)cc(=O)n2c1CCN(Cc1ccc3nsnc3c1)CC2	-24%
Cc1c(CN2CCOc3c(O)cc(-c4nc5ccccc5s4)cc3C2)cnn1C	-6%
Cn1cc(-c2nc3cncnc3n(C3CC3)c2=O)c2ccccc21	2%
CCN1C(=O)CC(CC(=O)N2CCC(c3nc4ccc(F)cc4[nH]3)CC2)(c2ccccc2C)C1=O (stereo not given)	?
c1csc(CNc2nc(CN3CCCC(c4nc5ccccc5o4)C3)nc3ccccc23)c1 (stereo not given)	?
O=C(c1cccc(F)c1F)N1CCOc2ccc(CN3CCN(Cc4ccccn4)CC3)cc2C1	-20%
CCN(CC)C(=O)c1ccc(O)c(OC)c1	?
COc1ccccc1CN1CC[C@@]2(CCCN(C(C)=O)C2)C1	-16%
c1csc(CNc2ccnc(-c3ccoc3)n2)c1	-4%
CC(CNC(=O)c1cccnc1)NC(=O)c1cccnc1 (stereo not given)	5%
CCCN1CCC(=O)N([C@H](CSc2ccccc2)c2ccccc2)CC1	-22%
CCC1C(=O)NCCN1Cc1ccc2c(c1)CN(Cc1ccc3c(c1)OCCO3)CCO2 (stereo not given)	-5%
COCC(=O)N1CCC2(CCCN(C(=O)Nc3ccc(OC)cc3)C2)CC1	-16%
Cn1nccc1C(=O)NCC1CCC2(CCN(Cc3c(O)ccc4ccccc34)CC2)O1 (stereo not given)	-14%
COc1cccc(Cn2c(=O)c(-c3cn(C)c4ccccc34)nc3cnc(N4CCOCC4)nc32)c1	14%
COc1cccc(CN2C(=O)NC(C)(C3CCN(Cc4cc(Cl)ccc4O)CC3)C2=O)c1OC (stereo not given)	-20%
CCc1nc(CN2CCOc3ccc(C(O)C4CCCCC4)cc3C2)c(C)[nH]1 (stereo not given)	-15%
Cc1ccc(S[C@@H](CCN2CC[C@H](NC(=O)OCc3ccccc3)CCC2=O)c2ccccc2)cc1	-20%
CC(=O)N1CCC[C@@]2(CCN(C(=O)Nc3ccccc3)C2)C1	-17%
Nc1nc2c(nc(Sc3ccc(Cl)cc3)n2C2OC(CO)C(O)C2O)c(=O)[nH]1 (stereo not given)	-11%
COC1=C(C(=O)O)N2C(=O)[C@@H](NC(=O)[C@H](N)C3=CCC=CC3)[C@H]2SC1	10%
(listing goes on)
SMILES	EPAC2 antag
COc1cccc2c3c(c(C)nc12)CC(CO)O3 (stereo not given)	15%
NC(=O)C1=CN(C2OC(COP(=O)(O)OP(=O)(O)OC[C@H]3O[C@@H](n4cnc5c(N)ncnc54)[C@H](OP(=O)(O)O)[C@@H]3O)C(O)C2O)C=CC1 (stereo not given in full)	30%[activator]
COC(=O)c1c(-c2cc(OC)c(OC)c(OC)c2)c2ccnc(OCc3ncccn3)c2c(=O)n1Cc1ccnc(C)c1	-28%
O=C1c2ccccc2C(=O)C1c1ccccc1	-19%[56.6 µM]
CN(C)c1ccc(-c2cncnc2NCCc2cnc[nH]2)cc1	-10%
O=c1cc[nH]c(=S)[nH]1	-11%
c1ncc(CC2CCNCC2)[nH]1	?
O=C1[C@@H]2[C@H]3CC[C@H](C3)[C@@H]2C(=O)N1CCCCN1CCN(c2ncccn2)CC1	294%[activator]
COCC(=O)Nc1cc(C(=O)N2CCCC(C(N)=O)C2)cc2nc(-c3ccccc3)n(C)c12 (stereo not given)	-3%
CC[C@H](C)C(=O)O[C@H]1C[C@H](O)C=C2C=C[C@H](C)[C@H](CC[C@@H](O)C[C@@H](O)CC(=O)O)[C@H]21	-11%
O=c1onc2cnc3ccccc3n12	?
COC(=O)/C=C/c1ccc(C(=O)NCC(=O)N[C@@H](CCC(=O)OC)C(=O)N[C@@H](CC(C)C)C(N)=O)cc1	-15%
COCCOC(=O)C1=C(C)NC(C)=C(C(=O)OC(C)C)C1c1cccc([N+](=O)[O-])c1 (stereo not given)	?
O=C(Nc1ccccc1)N[C@H]1C[C@H](C(=O)O)Nc2cc(Cl)cc(Cl)c21	?
Cc1ccc(C(=O)N(Cc2cc3cc4c(cc3nc2N2CCOCC2)CCC4)CC2CCCO2)cc1 (stereo not given)	?
OC1CCN(Cc2ccc3c(c2)CN(C/C=C/c2ccco2)CCO3)CC1	-18%
O=C(c1cnccn1)N1CCC2(CC1)CCN(c1ccccn1)CC2	-11%
CC1=C2C(O)C(=O)OC3CC4C(C)(C)C(=O)C=C[C@]4(C)C(CC1)[C@@]23C (stereo not given in full)	-9%
O=C1C=CC(=O)c2c(O)c(Cl)c(Cl)c(O)c21	-22%
C=C(C)C1Cc2c(ccc(C(=O)O)c2O)O1 (stereo not given)	-3%
c1ccc2sc(SSc3nc4ccccc4s3)nc2c1	2%
FC(F)(F)c1ccccc1-c1cncnc1-n1ccnc1	-20%
COCCOC(=O)C1=C(C)NC(C)=C(C(=O)OC(C)C)[C@@H]1c1cccc([N+](=O)[O-])c1	50µM*
COC(=O)C1CCCCN1Cc1ccc2c(c1)CN(C(=O)c1csc(-c3cccs3)n1)CCO2 (stereo not given)	-4%
COc1ccc(CN2CCOc3ccc(CN4CCN(CCO)CC4)cc3C2)c2ccccc12	-17%

16 structures already listed, sorted by number of heavy atoms, falling:
SMILES	EPAC2 antag
NC(=O)C1=CN(C2OC(COP(=O)(O)OP(=O)(O)OC[C@H]3O[C@@H](n4cnc5c(N)ncnc54)[C@H](OP(=O)(O)O)[C@@H]3O)C(O)C2O)C=CC1 (stereo not given in full)	30%[activator]
COC(=O)c1c(-c2cc(OC)c(OC)c(OC)c2)c2ccnc(OCc3ncccn3)c2c(=O)n1Cc1ccnc(C)c1	-28%
COC(=O)/C=C/c1ccc(C(=O)NCC(=O)N[C@@H](CCC(=O)OC)C(=O)N[C@@H](CC(C)C)C(N)=O)cc1	-15%
Cc1ccc(C(=O)N(Cc2cc3cc4c(cc3nc2N2CCOCC2)CCC4)CC2CCCO2)cc1 (stereo not given)	?
COCC(=O)Nc1cc(C(=O)N2CCCC(C(N)=O)C2)cc2nc(-c3ccccc3)n(C)c12 (stereo not given)	-3%
CC[C@H](C)C(=O)O[C@H]1C[C@H](O)C=C2C=C[C@H](C)[C@H](CC[C@@H](O)C[C@@H](O)CC(=O)O)[C@H]21	-11%
O=C1[C@@H]2[C@H]3CC[C@H](C3)[C@@H]2C(=O)N1CCCCN1CCN(c2ncccn2)CC1	294%[activator]
OC1CCN(Cc2ccc3c(c2)CN(C/C=C/c2ccco2)CCO3)CC1	-18%
CC1=C2C(O)C(=O)OC3CC4C(C)(C)C(=O)C=C[C@]4(C)C(CC1)[C@@]23C (stereo not given in full)	-9%
CN(C)c1ccc(-c2cncnc2NCCc2cnc[nH]2)cc1	-10%
FC(F)(F)c1ccccc1-c1cncnc1-n1ccnc1	-20%
COc1cccc2c3c(c(C)nc12)CC(CO)O3 (stereo not given)	15%
O=C1c2ccccc2C(=O)C1c1ccccc1	-19%[56.6 µM]
C=C(C)C1Cc2c(ccc(C(=O)O)c2O)O1 (stereo not given)	-3%
O=c1onc2cnc3ccccc3n12	?
c1ncc(CC2CCNCC2)[nH]1	?

New compounds follow.
SMILES	EPAC2 antag
CCCCCC1CCNCC1	-10%
COC(=O)C[C@H]1c2cc(C(F)(F)F)ccc2S(=O)(=O)N1C(C)C	?
O=Cc1cc2c3c(c1)CCCN3CCC2	-20%
COc1ccc(CC(=O)c2ccc(O)cc2O)cc1	?
Cc1ccc(Cl)c(Nc2ccccc2C(=O)O)c1Cl	?
Cc1ccccc1-c1ccc2ncnc(N3CCOCC3)c2c1	?
C#Cc1cccc(Nc2ncnc3cc(OC)c(OC)cc23)c1	-14%
C=C(C)C1CC=C(CO)CC1 (stereo not given)	-13%
CN(Cc1ccco1)c1cc(-c2cccc(NS(C)(=O)=O)c2)ncn1	-33%
O=CC(=O)c1ccc(Cl)cc1	-13%
CCOC(=O)C[C@H]1c2ccccc2S(=O)(=O)N1Cc1cccc(C(F)(F)F)c1	56µM*
COc1ccccc1N1CCN(CCN2C(=O)CC3(CCCC3)CC2=O)CC1	-3%&-12%&-13%
O=c1oc2cc(O)ccc2cc1-c1ccc2c(c1)OCCO2	-12%
OCCN1CCN(Cc2ccc3c(c2)CN(Cc2cccn2-c2ccccn2)CCO3)CC1	-1%
COC(=O)C1=C(C)NC(C)=C([N+](=O)[O-])[C@@H]1c1ccccc1C(F)(F)F	40µM*
COc1ccc2[nH]cc(CCNc3cc(-c4cccc(C#N)c4)ncn3)c2c1	-38%
Cc1nc2n(c(=O)c1CCN1CCC(c3noc4cc(F)ccc34)CC1)CCCC2	?
COc1ccc2[nH]cc(CCNc3ncncc3-c3ccccc3Cl)c2c1	?
Cc1nn(-c2ccccc2)c(C)c1/C=N/N1CCN(Cc2ccccc2)CC1	-24%
COC(=O)CCc1ccc(OCC(O)CNC(C)C)cc1 (stereo not given)	20%
O=C(OC[C@H]1O[C@](O)(COC(=O)c2cccnc2)[C@@H](OC(=O)c2cccnc2)[C@@H]1OC(=O)c1cccnc1)c1cccnc1	-1%
CC(C)[N+]1(C)[C@@H]2CC[C@H]1CC(OC(=O)C(CO)c1ccccc1)C2 (stereo not given in full)	28%&13%
COc1ccc(Cl)cc1N=Nc1ncc[nH]1	-13%&-45%
Cc1ccc2c(c1)CN(CCC(=O)NCc1cc(C)n(C)n1)CC(C)O2 (stereo not given)	-6%
COc1cc(-c2c(-c3ccc4c(c3)OCO4)noc2C)ccc1F	?
Further records
SMILES	EPAC2 antag
O=C(O)CCC(=O)Nc1ccc(S(=O)(=O)Nc2nccs2)cc1	-9%[56.6 µM]
COc1cc2c(cc1OC)C(=O)Cc1ccc3c(c1CN(C)CC2)OCO3	-15%&-9%
C[C@@H](NCCc1ccc(O)cc1)[C@@H](O)c1ccc(O)cc1	-24%
CCc1ccccc1N(C)C	11%
CCCCCCCC(=O)O[C@H](CC(=O)O)C[N+](C)(C)C	-28%
COc1ccccc1CN1CCCC2(CCN(C(=O)c3cnccn3)CC2)C1	-12%
CC(O)COc1ccccc1 (stereo not given)	-4%
CCCCOC(=O)c1ccc(O)cc1	-23%
COc1ccccc1CNc1nc(-c2ccc(N(C)C)cc2)nc2ccccc12	-11%
c1cncc(CNc2nc(-c3ccoc3)nc3ccccc23)c1	-14%
O=C(O)c1c(C(=O)O)c2ccccc2[nH]c1=O	13%
Cc1cccc(CNc2ncncc2-c2ccccc2CN(C)C)c1	-12%
N=C(N)c1ccccc1	9%
Nc1ccc(/C=C/c2ccc(N)cc2S(=O)(=O)O)c(S(=O)(=O)O)c1	?
COCCn1c(=O)cnc2cnc(OC)nc21	2%
COCCn1c(=O)c(-c2ccc(Cl)cc2)nc2cnc(Oc3ccc(OC)cc3)nc21	2%
COCC(=O)N1CCC2(CC1)CCN(C(c1ccccc1)c1ccccc1)CC2	-28%
COCCn1c(=O)c(-c2cccs2)nc2cnc(Oc3ccc(OC)cc3)nc21	-24%
CN1CC[C@@]2(CCCN(S(=O)(=O)c3ccccc3)C2)C1	-22%
COC(=O)C[C@H]1c2ccccc2S(=O)(=O)N1Cc1ccc(OC)cc1	?
COc1ccccc1CNc1ncncc1-c1ccoc1	-18%
CCn1c(-c2ccccc2F)nc2cc(NC(C)=O)cc(C(=O)NC(c3ccccn3)C(F)(F)F)c21 (stereo not given)	?
CN(C)c1ncnc2ccc(-c3ccoc3)cc12	-29%
COc1cccc(Cn2c(=O)c(CCc3ccccc3)nc3cnc(N4CCNCC4)nc32)c1	-18%
COc1cccc(CN2CCC3(CCC(CNC(=O)c4cc(C)nn4C)O3)CC2)c1OC (stereo not given)	-35%
Next records:
SMILES	EPAC2 antag
O=C(Nc1cccc(F)c1)N1CC[C@@]2(CCCNC2)C1	-19%
COC(=O)N1CCC2(CC1)CN(C(=O)Nc1ccc(OC)cc1)C2	-15%
Nc1nc(Cl)c2ncn(C3OC(CO)C(O)C3O)c2n1 (stereo not given)	-6%
O=C(c1cccc(F)c1)N1CCC2(CC1)CCN(c1ccccn1)CC2	-15%
O=C1CCN(Cc2ccc(Br)cc2)CCN1[C@H](CO)Cc1ccccc1	-14%
COc1cc2c(cc1OC)-c1cc3cc(OC)c(OC)cc3c(=O)n1CC2	-22%
CN(Cc1ccco1)c1ncnc2ccc(-c3ccccc3C#N)cc12	-40%
CC(C)(C)[C@@H]1CCC(=O)N(CC[C@H](N=[N+]=[N-])c2ccccc2)CC1	-50%
COc1ccc([C@@H]2[C@@H](O)[C@H](O)[C@@H](C)N2C)cc1OC	-24%
CC(=O)OC1CCC2(C)C(=CC=C3C2CCC2(C)C3CCC2C(C)/C=C/C(C)C(C)C)C1(C)C (stereo not given)	-6%
Cc1ccc(O)cc1	-26%&6%&14%
CC(=O)OC[C@H]1O[C@@](COC(C)=O)(O[C@H]2O[C@H](COC(C)=O)[C@@H](OC(C)=O)[C@H](OC(C)=O)[C@H]2OC(C)=O)[C@@H](OC(C)=O)[C@@H]1OC(C)=O	-2%
Clc1ccc(/C=C/c2ccnc3ccccc23)c(Cl)c1	25%
Cc1cccc(C)c1NC(=O)C(C)N (stereo not given)	-13%
CCC(COC)NC(=O)c1cnn(-c2ncc3c(n2)-c2ccccc2CC3)c1C (stereo not given)	11%
CC(C)NS(=O)(=O)c1cc(C(F)(F)F)ccc1/C=C/C(=O)O	-15%
COc1ccc(CN2Cc3ccccc3OC(c3ccccc3OC)C2)c(O)c1 (stereo not given)	-17%
CN(C)CC[C@@H](c1ccc(Cl)cc1)c1ccccn1	-12%&-10%&4%

Some of the compounds tested; the hit share may differ from the screen's.
